Bioassay records (PubChem BioAssay)
Calb FLC: C. albicans growth inhibition with fluconazole, primary screen, CaCi-2 strain, Alamar Blue fluorescence | C. albicans CaCi-2 (fluconazole-resistant clinical isolate) + fluconazole, 48 h | AID 1979, 2009 | growth inhibition, % (test concentration not listed) | actives 0.57% (n = 300,000);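 active = most replicates above 75%; inconclusive = exactly half above 75%; inactive = most below 75%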;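 also: all wells also contain fluconazole at 8 µg/ml as a sub-toxic cotreatment; 0% = median of DMSO wells and 100% = median of geldanamycin control wells; wells of about 8 µL received 7.5 nL stock; the first replicate is given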
Ecoli rRNA inh: reduced GFP signal of wild-type E. coli, primary screen, bacterial rRNA inhibitor project, GFP/RFP fluorescence, OD600, single point | E. coli WT GFP vs humanized-ribosome RFP mutants, 24 h; hits give low values; DMSO median 0, no signal -100 | GFP signal change (wild-type ribosome), % (test concentration not listed) | actives 1.6% (n = 350,000);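 active = significant combined selectivity score with lowered wild-type GFP, culture density cut under 30%, mutant RFP and density less affected; inactive = any of these conditions unmet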; also: one replicate is shown; some compounds called inactive have numbers as strong as hits
A1 inh: caspase 3/7 activation in MEF A1-2A-BIM cells, primary screen, A1 inhibitor project, cell-based, luminescence, HTS; Caspase-Glo 3/7 luminescence, 3 h; percent of clofoctol response, vehicle zero; caspase activation, % (no concentration beside the values); actives 0.066% (n = 330,000);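 active = over half of replicate activation scores above 10%, or exactly half above 10 with the replicate mean above 10; inconclusive = replicate mean below 10 yet half the replicates above 10; inactive = over half of replicates below 10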;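 also: wells of about 30 µL received 50 nL stock; many hits fall short of the cut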
RanGTP-Impb inh: inhibitors of RanGTP-importin-beta interaction, primary screen, biochemical, FRET, CFP-Ran, YFP-importin-beta, homogeneous; Ran GTPase (GTP-bound) - importin-beta complex; cell-free CFP-Ran/YFP-importin-beta FRET ratio; AID 2216, 2009; actives 1.1% (n = 300,000); inhibition, % (concentration not given with the values);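 active = most replicates above 15%; inconclusive = exactly half above 15%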;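 also: 0% = DMSO wells and 100% = Ran loaded with GDP instead of GTP; wells of about 40 µL received 100 nL stock; the first replicate is given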
AF4-AF9 inh: inhibitors of AF4 peptide binding to AF9, primary screen, biochemical, AlphaScreen, biotin-AF4 peptide, FLAG-AF9, single point; Protein AF-9 (Homo sapiens), P42568; inhibition, % at 10 µM; actives 0.47% (n = 350,000); AID 651704, 2012;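 active = every replicate reaching a set inhibition limit, whatever the replicate mean, cut at about 25% in these data; inconclusive = mean inhibition reaches that limit but some replicates miss it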;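 also: 0% = plate neutral control median and 100% = total signal loss; the record names both 10 and 1 µM as test concentration; the first replicate is given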
Target sequence (P42568 whole entry, looked up): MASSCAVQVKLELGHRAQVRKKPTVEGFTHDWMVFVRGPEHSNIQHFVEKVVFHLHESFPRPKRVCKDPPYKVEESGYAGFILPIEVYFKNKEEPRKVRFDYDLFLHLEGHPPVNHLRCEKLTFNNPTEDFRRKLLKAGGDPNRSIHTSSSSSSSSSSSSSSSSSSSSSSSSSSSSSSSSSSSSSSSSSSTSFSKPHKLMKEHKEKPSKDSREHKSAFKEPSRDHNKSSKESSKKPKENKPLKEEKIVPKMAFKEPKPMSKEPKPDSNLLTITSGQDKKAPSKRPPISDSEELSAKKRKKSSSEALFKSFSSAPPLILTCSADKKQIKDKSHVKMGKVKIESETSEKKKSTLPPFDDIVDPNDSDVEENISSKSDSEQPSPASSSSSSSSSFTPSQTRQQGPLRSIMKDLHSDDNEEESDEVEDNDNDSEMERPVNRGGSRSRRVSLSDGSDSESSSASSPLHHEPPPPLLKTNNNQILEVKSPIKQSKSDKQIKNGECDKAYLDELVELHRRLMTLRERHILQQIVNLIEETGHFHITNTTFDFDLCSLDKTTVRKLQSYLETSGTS
T cruzi inh: inhibitors of intracellular T. cruzi growth, primary screen, luminescence, NIH3T3 host cells; T. cruzi beta-gal in NIH3T3, 90 h; inhibition, % (test concentration not listed); actives 1.4% (n = 300,000);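 active = mean inhibition across valid replicates above about 55%, limit read from the data; inconclusive = mean below that limit but half or more replicates reach it; inactive = mean below it, under half of replicates reach it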;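 also: signal also drops with host cell toxicity which is not excluded here; 0% = plate median of DMSO wells and 100% = zero luminescence signal; higher percent means less beta-gal luminescence so fewer parasites; stock transfer was 50 nL into about 50 µL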
Beta cell apopt: inhibitors of cytokine-induced beta cell apoptosis, primary screen, luminescence | INS-1E cytokine-induced death, ATP luminescence, 48 h; percent of positive-control rescue, neutral wells zero | protection from apoptosis, % (concentration not given with the values) | actives 0.8% (n = 300,000);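 active = all replicates at 75% or more, or half of them and the mean; inconclusive = half reach 75% but not the mean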;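 also: 0% = cytokine-treated negative control wells and 100% = positive control rescue; higher means more ATP so stronger rescue from cytokine killing; wells of about 40 µL received 100 nL stock; the first replicate is given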
Vif TR-FRET: inhibitors of Vif binding to APOBEC3G peptide, primary screen, biochemical, TR-FRET, GST-Vif 1-94, biotin-A3G peptide, dose response retest (AID 1117319); Virion infectivity factor (Human immunodeficiency virus type 1 group M subtype B (isolate …; TR-FRET GST-Vif / biotin-A3G peptide binding; higher % means a stronger effect; test concentration not given here; strong numbers were not always called active; inhibition, %, or IC50 in µM where a hit was titrated; actives 0.57% (n = 260,000);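 active = above the screen mean plus three standard deviations and confirmed in dose response; inconclusive = results disagree or hit not tested in dose response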;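 also: Vif residues 1-94 fused to GST binding biotinylated APOBEC3G peptide 110-148; 0% = full assay without inhibitor and 100% = GST in place of GST-Vif; retest series ran down from 100 µM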
Ecoli rRNA inh OD600: further read-out of Ecoli rRNA inh, marked with its call; OD600 change, %; measured here: OD600 growth;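 optical density of the mix in the first replicate; 0 = DMSO median and -100 = no signal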
Ecoli rRNA inh RFP: further read-out of Ecoli rRNA inh, marked with its call; RFP signal change, %; measured here: RFP humanized mutant strains;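 first replicate; 0 = DMSO median and -100 = no signal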
* = called active by the depositor; ? = inconclusive; . = no result given. This is a subset; rates above refer to the full screens.

Results follow in this order: Calb FLC | Ecoli rRNA inh | Ecoli rRNA inh OD600 | Ecoli rRNA inh RFP | A1 inh | RanGTP-Impb inh | AF4-AF9 inh | T cruzi inh | Beta cell apopt | Vif TR-FRET
> O=C(Nc1ccc2c(c1)OCCO2)c1c(F)cccc1F
→ -3 | 4 | 7 | -3.8 | -4.4 | 1.7 | 1.9 | -13 | -3 | 9%
> Cc1ccc(NC(=O)[C@H](NC(=O)[C@@H]2Cc3ccccc3CN2)c2ccccc2)c(C)c1
→ 2 | 0 | 4 | 7.1 | 0.9 | 2.0 | 4.8 | 3 | 1 | -3%
> Cc1ccc(-n2c(Cc3cccc4ccccc34)n[nH]c2=S)c(C)c1
→ 8 | -45* | -28* | -4.3* | -0.7 | -3.4 | -2.4 | 3 | 3 | .
> FC(F)(F)c1cc(-c2cccs2)nc2nc(N3CCOCC3)sc12
→ -1 | 6 | 19 | 2.2 | 0.1 | -5.6 | 0.6 | 17 | 3 | -8%
> CCCCOC(=O)C1=C(C)Nc2ncnn2C1c1cccc(OC)c1OC (stereo unspecified)
→ 37 | . | . | . | -0.3 | 5.5 | . | -2 | 5 | 21%
> COC(=O)c1ccc(N2C(=O)CC(SCC(=O)Nc3ccc(OC)cc3)C2=O)cc1 (stereo unspecified)
→ -2 | 1 | 6 | 3.8 | 0.1 | -0.2 | 0.3 | 0 | -10 | 6%
> COc1ccc(CCNC(=O)[C@H](C)N2C(=O)N3CCc4c([nH]c5ccccc45)[C@@]3(C)C2=O)cc1OC
→ 4 | -24 | -24 | -7.6 | 0.3 | -1.0 | 6.3 | 12 | . | .
> CCOc1ccc(NC(=O)C2CCCN(S(C)(=O)=O)C2)cc1 (stereo unspecified)
→ -3 | 14 | 10 | -2.0 | 0.3 | 1.4 | -9.1 | -12 | -2 | .
> COc1ccc(CC(NC(C)=O)C(=O)NC2CCN(C(=O)c3cccc(Cl)c3)CC2)cc1OC (stereo unspecified)
→ -3 | 0 | -1 | -0.3 | . | -0.4 | -2.8 | -2 | . | .
> CCN(C(=O)CSc1nnc(-c2cccs2)n1CC)C1CCS(=O)(=O)C1 (stereo unspecified)
→ -7 | 10 | 8 | -1.2 | 2.0 | -1.1 | -2.4 | 3 | 2 | 7%
> COc1ccc(Nc2nc(Cl)nc(N3CCN(c4ccc(OC)cc4)CC3)n2)cc1
→ 44 | 1 | 1 | -5.7 | 1.8 | 0.4 | 12 | 20 | 14 | 12%
> Cc1cc(=O)n2[nH]c(C(F)(F)F)c(-c3ccccc3)c2n1
→ 4 | -6 | -4 | 0.8 | -1.2 | -1.3 | . | -6 | -4 | 0%
> CCn1c(=O)c([N+](=O)[O-])c(NCc2ccc3c(c2)OCO3)c2ccccc21
→ 19 | 26 | 3 | 1.1 | 0.4 | -3.7 | 1.3 | 25 | 2 | 10%
> O=C1N[C@H](Cc2ccccc2)CO1
→ -1 | 7 | 16 | 14 | 0.6 | 2.2 | 4.3 | -13 | -3 | .
> CCN(CC)S(=O)(=O)N1CCC(C(=O)NC2CCCc3ccccc32)CC1 (stereo unspecified)
→ 3 | . | . | . | -0.9 | -1.1 | . | 4 | . | 2%
> CC(=O)n1nc(-c2cccnc2)nc1N
→ -15 | . | . | . | 0.1 | 1.9 | . | -14 | 2 | 7%
> COc1ccc(Nc2nc(N)nc(CSc3n[nH]c(-c4ccccc4)n3)n2)cc1
→ 26 | . | . | . | 0.8 | -2.7 | . | 10 | -7 | -5%
> CNC(=O)C(=O)NCCN1CCN(C(=O)c2ccc([N+](=O)[O-])cc2)CC1
→ -1 | 17 | 22 | 0.0 | 0.1 | -4.2 | -1.8 | -18 | -1 | ?
> CCOc1ccc(CNc2nc3ccccc3n2CCN2CCOCC2)cc1
→ -3 | . | . | . | 1.5 | -0.9 | . | 4 | 5 | .
> O=C(Nc1ccc(NC(=O)c2ccco2)nc1)c1ccccn1
→ 1 | . | . | . | -14 | -3.8 | . | -8 | -4 | -1%

New compounds follow.
Results follow in this order: Calb FLC | Ecoli rRNA inh | Ecoli rRNA inh OD600 | Ecoli rRNA inh RFP | A1 inh | RanGTP-Impb inh | AF4-AF9 inh | T cruzi inh | Beta cell apopt | Vif TR-FRET
> Cc1cc(C)c2cc(C(=O)N(C)C3CCN(C)CC3)[nH]c2c1
→ 7 | 9 | 8 | -2.6 | 0.1 | 4.5 | 1.0 | 34 | 3 | -12%
> CCn1c(SCC(=O)N2CCCCC2C)nc2ccsc2c1=O (stereo unspecified)
→ -27 | . | . | . | 0.5 | 1.8 | . | 5 | -3 | -2%
> CCC(CC)C(=O)Nc1cccc(/C(C)=N/NC(=O)c2ccccc2Cl)c1
→ -50 | . | . | . | 0.3 | 2.7 | . | -1 | -3 | ?
> CCn1nc(C)cc1C(=O)Sc1ccc(Cl)cc1Cl
→ 3 | 2 | 10 | -1.3 | 1.5 | 0.4 | -0.2 | . | -16 | -6%
> CCC(=O)Nc1ccc(S(=O)(=O)Nc2ncccn2)cc1
→ -8 | . | . | . | 0.3 | -4.9 | . | -10 | -2 | 1%
> CCCOc1ccc(N2CC(C(=O)NC3=NCCS3)CC2=O)cc1 (stereo unspecified)
→ 1 | -9 | -3 | -4.6 | 1.2 | 1.5 | 0.0 | -23 | -17 | 5%
> O=c1c2cnn(-c3ccccc3)c2ncn1Cc1ccco1
→ -6 | . | . | . | 0.6 | -0.8 | . | -9 | -3 | 0%
> COc1ccc(C(=O)Nc2ccccc2)cc1NC(=O)c1ccc([N+](=O)[O-])cc1
→ 15 | -4 | 1 | 2.0 | 0.2 | -0.8 | 7.0 | 61* | 11 | .
> CCCCCCc1cc2cc(C(N)=O)c(=N)oc2cc1O
→ 1 | . | . | . | -0.4 | 168* | . | -10 | -1 | 14%
> O=C(CN1C(=O)COc2ccccc21)NC1CCCC1
→ -4 | 29 | 20 | 5.1 | 0.5 | -1.1 | 1.9 | -10 | -9 | .
> C[N+](C)(C)CCOP(=O)(O)OP(=O)([O-])OC[C@H]1O[C@@H](n2ccc(N)nc2=O)[C@H](O)[C@@H]1O
→ . | . | . | . | 0.5 | 8.2 | . | -7 | 4 | .
> O=C(Cn1cc(-c2nnnn2-c2ccc(Cl)cc2)c(=O)c2ccccc21)c1ccccc1
→ -4 | . | . | . | 0.0 | -2.8 | . | 5 | . | -18%
> COc1cc(NC(=O)CN2CCN(CC(=O)Nc3ccccc3OC)CC2)cc(OC)c1
→ 2 | 7 | 10 | 0.7 | -0.9 | 0.4 | -2.2 | 5 | 5 | -2%
> Cc1nc2nc[nH]n2c(=O)c1NC(=O)c1c(-c2ccccc2Cl)noc1C
→ 26 | . | . | . | 0.6 | -3.7 | . | -14 | -15 | 4%
> COc1ccc(C)cc1Nc1n[n+](-c2ccccc2)c(-c2cccc(Cl)c2Cl)s1
→ 0 | . | . | . | 2.1 | 0.4 | . | 61* | 29 | .
> COc1ccc(-n2cc(C(=O)c3cc(Cl)ccc3O)cc(C#N)c2=O)cc1
→ 21 | -34 | -59 | -7.8 | -0.1 | -2.1 | -18 | 9 | 11 | .
> CCCn1nnnc1NC(=O)COc1ccc(CC)cc1
→ -6 | . | . | . | -0.4 | ? | . | -25 | -4 | 6%
> N#Cc1cc([N+](=O)[O-])ccc1NC(=O)COC(=O)c1cnccn1
→ . | 0 | -5 | -3.0 | 0.2 | . | 1.9 | . | -1 | 0%
> C/C(=N/Nc1ccnc2cc(Cl)ccc12)c1ccc(N)cc1
→ 0 | 24 | -12 | 5.1 | -1.0 | 0.2 | 24 | 60* | -1 | .
> COc1ccc(S(=O)(=O)N2CCCN(CC(=O)Nc3cc(NC(C)=O)ccc3OC)CC2)cc1
→ -2 | . | . | . | 0.7 | 1.4 | . | -3 | -5 | -9%

Going on with the list:
Results follow in this order: Calb FLC | Ecoli rRNA inh | Ecoli rRNA inh OD600 | Ecoli rRNA inh RFP | A1 inh | RanGTP-Impb inh | AF4-AF9 inh | T cruzi inh | Beta cell apopt | Vif TR-FRET
> O=C(NCCc1ccc(Cl)cc1)C12CC3CC(CC(O)(C3)C1)C2
→ 12 | -14 | -17 | -6.5 | 1.0 | 4.6 | -1.6 | -3 | 1 | .
> COc1ccc(-c2nn(-c3ccccc3)cc2CNCCN2CCOC2=O)c(F)c1
→ 2 | 5 | 14 | 60 | -2.6 | -1.1 | 3.0 | -22 | 0 | .
> CCN(CC)c1ccc(NC(=O)CN2CCN(CC(=O)Nc3ccc(OC)cc3)CC2)cc1
→ 4 | 11 | 12 | -1.3 | 0.6 | 1.2 | 6.0 | 4 | . | 0%
> CC(C)c1nc(N2CCCC2)c(C#N)c2c1CCCC2
→ 1 | . | . | . | ? | -2.6 | . | 13 | 3 | 4%
> COCc1nnc(NC(=O)C2CC(=O)N(C3CCCCC3)C2)s1 (stereo unspecified)
→ -2 | -2 | -4 | -3.3 | 0.7 | 3.4 | 1.2 | 2 | -4 | .
> O=C(NCc1ccccn1)c1cc2ccccn2n1
→ 0 | 2 | 1 | -1.1 | 0.0 | -1.1 | -4.7 | -5 | -6 | -4%
> COc1ccc(NC(=O)C2CCN(c3cnccn3)CC2)cc1Cl
→ -2 | -3 | -4 | 1.5 | 0.3 | 1.3 | 2.5 | 2 | -7 | .
> CCCNC(=O)NC(=O)COC(=O)c1ccc(S(=O)(=O)N(C)c2ccccc2OC)cc1
→ -2 | 2 | 6 | -2.9 | 0.1 | 3.0 | 1.6 | -13 | -4 | ?
> NC(=O)CC(O)c1cccc(Cl)c1 (stereo unspecified)
→ 2 | . | . | . | -0.2 | -1.8 | . | -5 | 1 | 12%
> CN(c1ccc(OCC(=O)Nc2ccccc2C(=O)O)cc1)S(=O)(=O)c1ccc(Cl)cc1
→ . | -46 | -76 | -14 | 0.7 | . | 0.0 | . | -1 | 1%
> CCOC(=O)c1c(S(=O)(=O)Nc2ccccc2OCC)c(C)n(C)c1C
→ 6 | -9 | 0 | -8.1 | -0.5 | -1.2 | -0.3 | 6 | -5 | .
> CCN(CC)C(=O)Cn1cc(/C=C(\C#N)C(=O)N2CCN(c3ccccc3)CC2)c2ccccc21
→ -8 | . | . | . | 0.0 | -0.8 | . | 25 | 14 | 1%
> CCOc1ccccc1N1CCN(C(=S)NCc2ccco2)CC1
→ -24 | . | . | . | -0.9 | 2.9 | . | -12 | -2 | .
> C/C(N)=C(/C#N)C(=O)COC(=O)CNS(=O)(=O)c1ccc2ccccc2c1
→ 2 | -14 | -8 | -2.2 | 1.4 | ? | -1.3 | -6 | -3 | 20%
